Assay outcomes from PubChem BioAssay.
26S disassembly: blocks ATP-dependent breakdown of the yeast 26S proteasome | anti-FLAG beads, GFP-proteasome disassembly, flow cytometry | hit rate 0.2% among 24,000 | inhibition of disassembly, % (concentration not given with the values);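 active means above 40%; inconclusive means likely self-fluorescent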;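 further: plate controls were ATP control with full disassembly for no effect and ATP-gamma-S intact proteasomes for full effect; higher percent means more bead fluorescence retained so stronger block of disassembly; stock transfer was 100 nL into about 10 µL; wells with too few beads may also be inconclusive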
VCAM-1 rise: boosters of cytokine-driven VCAM-1 levels – cell-based, plate reader, pooled HUVEC, TNFa stimulus (AID 455) | hit rate 0.2% among 10,000 | HUVEC TNFa-induced VCAM-1 immunofluorescence, plate reader; numbers were filed only for top-ranked candidate wells | augmentation, % at 5 µM;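 active means a compound raising TNF-alpha-driven VCAM-1 surface staining, with its hit status upheld on visual or statistical review; inactive means the rest, including hits rejected on review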;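 further: 0% = TNFa with vehicle and 100% = strongest image-checked hit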
Numbers without * were called inactive; i = inactive; ? = inconclusive; . = no result given. Only part of the results is shown. The share of hits here may be higher or lower than overall.

SMILES	26S disassembly	VCAM-1 rise
O=C(CN1CCN(C(=O)c2ccco2)CC1)Nc1ccc(Cl)c(C(F)(F)F)c1	1.3	.
NCCCCCc1nnc(SC/C=C/c2ccccc2)o1	2.3	i
O=C(Nc1ccc(Cl)cc1)N1CCN(c2ccc3nnc(-c4ccc(F)cc4)n3n2)CC1	0.1	.
COc1ccccc1NC(=O)CSc1nnc(Cc2cc(=O)[nH]c(=O)[nH]2)n1-c1ccccc1	0.6	.
Cc1nn(Cc2ccccc2Cl)c(C)c1N	4.4	.
CCCC1CCC(C(=O)Nn2c(C)nc3ccccc3c2=O)CC1 (stereo not given)	-0.7	i
S=C(c1ccc(N2CCOCC2)cc1)N1CCCCC1	-0.1	i
CCOC(=O)c1cccc(NC2c3ccccc3C(=O)N2Cc2ccco2)c1 (stereo not given)	0.9	i
COc1ccc(NC(=O)C2CCCN2S(=O)(=O)c2ccc3c(c2)CCC(=O)N3)cc1 (stereo not given)	-0.3	.
CCOC(=O)c1cccc(NC(=O)C2CCCN(S(=O)(=O)c3cnc[nH]3)C2)c1 (stereo not given)	-0.2	.
CC(=O)NC(=O)NC1CSCC1OC(C)=O (stereo not given)	1.4	i
COc1ccccc1CNC(=O)CC(NS(=O)(=O)c1ccc(C)cc1)c1ccco1 (stereo not given)	1.4	.
CC(C)(C)n1nnnc1C(c1cccc(C#N)c1)N1CCC(Cc2ccccc2)CC1 (stereo not given)	3.1	i
COC(=O)CCC(=O)N1CCc2cc(S(=O)(=O)N3CCc4ccccc43)ccc21	4.2	.
Cc1ccc(S(=O)(=O)C2(C(=O)NCc3ccc4c(c3)OCO4)CC2)cc1	0.7	.
COCCn1nnnc1CN(Cc1cccnc1)Cc1cc2cc(OC)ccc2[nH]c1=O	-0.3	i
COC(=O)c1nc2n(n1)C(c1cccc(Cl)c1)C1=C(CC(C)(C)CC1=O)N2 (stereo not given)	-0.9	.
O=c1cc(CO)oc(CN2CCC(Cc3ccccc3)CC2)c1O	-0.5	.
O=C(Cn1cc2c(n1)CCCC2)NCCCN1CCCC1	28	.
CCOC(=O)c1cccc(NC(=O)c2ccco2)c1	0.7	i

In another format: 2 of the compounds above.
COc1ccc(NC(=O)C2CCCN2S(=O)(=O)c2ccc3c(c2)CCC(=O)N3)cc1 (stereo not given)
  26S disassembly: -0.3
  VCAM-1 rise: .
CCOC(=O)c1cccc(NC(=O)C2CCCN(S(=O)(=O)c3cnc[nH]3)C2)c1 (stereo not given)
  26S disassembly: -0.2
  VCAM-1 rise: .

(further entries)
SMILES	26S disassembly	VCAM-1 rise
CCOC(=O)CSC1=C(C#N)C(=O)NC(c2ccc(OC)c(OC)c2)S1 (stereo not given)	-2.0	i
COc1ccc(N(CC(=O)NCc2cccs2)S(=O)(=O)c2c(C)n[nH]c2C)cc1	-1.5	.
CC(=O)N1CCN=C1SCc1ccc(F)cc1	-2.4	.
CCOC(=O)N1CCN(C(=O)COc2ccc(S(=O)(=O)NC3CCCCC3)cc2C)CC1	-1.0	i
COc1ccc(N2C(=O)CCC(C(=O)NCc3ccccn3)C2c2ccc(OC)c(OC)c2)cc1 (stereo not given)	-0.8	.
Cc1ccc(-c2noc(-c3ccccc3C(=O)NCC3CCCO3)n2)cc1 (stereo not given)	1.6	i
COc1ccccc1NC(=O)CN1CCN(CC(=O)Nc2ccc(Cl)c(C(F)(F)F)c2)CC1	-0.3	.
CCN(CCNC(=O)Nc1ccc(Cl)cc1)c1ccccc1	-0.5	.
CCn1c(=O)cc(OCC(=O)NCc2ccc(C)o2)c2ccccc21	2.1	.
CC1Cc2nc(SCC(=O)Nc3ccc4c(c3)OCO4)n(Cc3ccccc3)c(=O)c2S1 (stereo not given)	2.9	.
CCOC(=O)C1CCN(Cc2ccc(OC)c(C)c2OC)CC1	0.5	i
COC(=O)C1=C(C)Nc2ccc(C)cc2S1	1.4	.
Nn1cc(-c2ccccc2)nc1SCC(=O)N1CCN(S(=O)(=O)c2ccccc2)CC1	1.0	i
Cn1c(Cc2ccccc2)nnc1SCC(=O)N1CCOCC1	0.1	i
FC(F)Sc1nnc(-c2cccs2)n1-c1ccccc1	-0.6	i
CCOc1ccc(CCNC(=O)C2CCN(c3ccc(N4CCOCC4)nn3)CC2)cc1OCC	-0.2	.
CCCCNC(=O)CS(=O)Cc1nc(-c2cccs2)oc1C (stereo not given)	14	.
Cc1ccccc1OCCn1c(=O)oc2ccccc21	-1.9	i
O=C1c2ccccc2-c2nccnc21	-2.3	.
Cc1csc(NC(=O)Nc2cccc(Cl)c2)n1	-52	i
O=C(O)c1ccc(NS(=O)(=O)c2ccc3c(c2)OCCO3)cc1	6.1	.
CC(C(=O)Nc1ccccc1-c1ccccc1)N1CCN(C(=O)c2ccco2)CC1 (stereo not given)	-0.8	i
COc1ccc(C)cc1NC(=O)c1nnn(Cc2cccc(F)c2)c1N	-0.2	i
Cc1ccc(CSC2=Nc3ccccc3C3=NC(CC(=O)NCc4ccco4)C(=O)N23)cc1 (stereo not given)	3.8	.
Oc1ccc(-c2nc3ncccn3c2Nc2ccc3c(c2)OCO3)cc1	0.2	.
O=C(CN1C(=O)C2C3C=CC(C3)C2C1=O)NCc1ccc2c(c1)OCO2 (stereo not given)	-0.6	i
CC1(C)CC(=O)C2=C(C1)NC(=O)CC2c1ccc(F)cc1 (stereo not given)	-1.6	.
CN(C)c1ccc(/C=C/C(O)=C2/C(=O)N(C)C3(C)CC2c2ccccc2O3)cc1 (stereo not given)	85*	i
CCOC(=O)c1cnc2c(C#N)c(C)nn2c1-c1ccccc1	1.6	.
O=C(Cn1ncc2c(=O)oc3ccccc3c21)NCCCN1CCCC1=O	-0.6	i
COc1ccccc1-c1nnc(SCC(=O)N2CCC(C)CC2)o1	1.6	.
O=C(Cn1c(=O)n(Cc2ccco2)c(=O)c2ccccc21)Nc1cccc(Cl)c1	-0.3	.
O=C(CCn1nc(-c2ccc(Cl)cc2)ccc1=O)NCCCN1CCCCCC1	1.2	.
Cc1ccc(C)n1CCN1CCN(C(=O)CSc2nc3ccccc3nc2N2CCOCC2)CC1	14	.
CSc1cccc(NC(=O)CN2C(=O)c3ccccc3S2(=O)=O)c1	0.6	.
CCOC(=O)N1CCN(C(=O)CCCN2C(=O)CSc3nc(C)cc(C)c32)CC1	-0.7	.
Cc1ccc(C)c(NC(=O)CSc2nnc(Cc3cccn3C)n2-c2ccc(F)cc2)c1	1.8	.
O=C(O)c1c2c(nc3ccc(S(=O)(=O)N4CCC(C(=O)N5CCCCC5)CC4)cc13)CCCC2	3.3	.
CC(NC(=O)Nc1nccs1)(C(F)(F)F)C(F)(F)F	-0.3	i
CCc1nccn1S(=O)(=O)c1ccc2ccc(C)cc2c1	0.4	i
COc1ccc(OC)c(-c2cc(C(=O)Nc3cc(C)on3)no2)c1	-1.7	.
O=C(O)CCC(=O)Nc1nc(-c2ccccc2)cs1	2.8	i
COC(=O)c1cc(=O)n(Cc2cccs2)c(=NCc2cccs2)s1	3.7	.
S=c1[nH]nc(-c2ccccc2)n1C1C=CCCC1 (stereo not given)	-1.0	i
CCOC(=O)C(NC(=O)Nc1cccc(C)n1)(OCC(F)(F)F)C(F)(F)F (stereo not given)	0.3	.
CC(C)C(NS(=O)(=O)c1cccc2nsnc12)C(=O)N1CCc2ccccc2C1 (stereo not given)	1.5	.
COc1ccccc1Cn1nnc2c(=O)[nH]c(C3CCN(C(=O)c4ccc(C)cc4)CC3)nc21	-0.5	.
COc1ccc(CCNC(=O)C2(C)CCC(=O)N2Cc2ccc3c(c2)OCO3)cc1OC (stereo not given)	-0.7	i
c1ccc(OCCOc2ncnc3sccc23)cc1	19	i
COc1ccccc1OCc1ccc(C(=O)NC(C)(C)C)o1	-1.8	i
COc1ccc2cc3cc(C(=O)NCCN4CCc5ccccc5C4)oc3nc2c1	-0.8	.
Cc1[nH]nc2nc(SCC(=O)NCC3CCCO3)n(-c3ccc(Br)cc3)c(=N)c12 (stereo not given)	1.4	.
CCCCn1c(=NC(=O)c2cccnc2)c(C(=O)OCC)cc2c(=O)n3ccccc3nc21	2.0	.
CCC(=O)N1CCc2cc(S(=O)(=O)NCCC(=O)Nc3cc(C)cc(C)c3)ccc21	-1.0	.
CCOC(=O)N1CCc2c(sc3c2C(=O)NC(c2ccc(-c4ccc(Cl)cc4)o2)N3)C1 (stereo not given)	?	.
CCn1c(=O)c(C(=O)NCCc2ccccc2)c(O)c2ccccc21	-0.8	i
COc1nc(N2CCCC2)nc(-n2cc(-c3ccccc3)nn2)n1	0.6	.
c1ccn2c(SCc3cn4ccsc4n3)nnc2c1	0.2	i
COc1ccc(S(=O)(=O)N2CCN(CC(=O)Nc3ccc(F)c(F)c3)CC2)cc1	7.8	i
O=C(Nc1cccc2ccccc12)N1CCOCC1	-0.7	i

Some of these compounds in order of SMILES length, smallest number first:
SMILES	26S disassembly	VCAM-1 rise
O=C(O)CCC(=O)Nc1nc(-c2ccccc2)cs1	2.8	i
CC(C)C(NS(=O)(=O)c1cccc2nsnc12)C(=O)N1CCc2ccccc2C1 (stereo not given)	1.5	.
COc1ccccc1Cn1nnc2c(=O)[nH]c(C3CCN(C(=O)c4ccc(C)cc4)CC3)nc21	-0.5	.

Whole records, looked up by structure.
`c1ccc(OCCOc2ncnc3sccc23)cc1` is listed as 26S disassembly: 19; VCAM-1 rise: i
`COc1ccc(CCNC(=O)C2(C)CCC(=O)N2Cc2ccc3c(c2)OCO3)cc1OC` (stereo not given) is listed as 26S disassembly: -0.7; VCAM-1 rise: i

Next part:
SMILES	26S disassembly	VCAM-1 rise
O=C(CCCn1c(=O)[nH]c2ccsc2c1=O)NCc1cccs1	-1.4	.
COc1ccc(CNC(=O)c2cc3c(C)nc4ccccc4c3o2)c(OC)c1	3.4	.
CCOC(=O)c1nnn(-c2nonc2N)c1CSc1ccc(C)cc1	-1.0	.
O=C(Nc1nc2c(s1)CCc1ccccc1-2)c1cccs1	1.4	i
COc1ccc(S(=O)(=O)NC2CCCCC2)c(C)c1C	0.5	i
Cc1ccc(Nc2nc(Oc3ccc(=O)[nH]n3)nc(N(C)C)n2)cc1	-1.7	i
O=C(CSCCc1ccccn1)Nc1ccccn1	0.7	.
CC1=C(C)CC2C(=O)N(c3cccc4ccccc34)C(=O)C2C1 (stereo not given)	-0.5	i
Cc1cc(C)c2c(C)nn(C3CCCCC3)c2n1	-0.8	i
CCOC(=O)Cc1csc(NC(=O)CSc2nnc(-c3ccncc3)n2Cc2ccco2)n1	-1.5	i
O=C1C=C(NCC2CCCO2)C2(CCCCC2)O1 (stereo not given)	-0.7	.
COc1ccc(NC(=O)Nc2c(C)n(C)n(-c3ccccc3)c2=O)cc1	1.5	.
CCOC(=O)c1[nH]c(C)c(C(=O)N(C)C)c1C	0.3	i
CCc1ccc(NC(=O)CSc2nnc(Cn3c(=O)sc4ccccc43)n2C)cc1	6.2	.
COc1ccc(OC)c(NC(=O)CC(Cc2ccccc2OC)C(=O)O)c1 (stereo not given)	-1.0	.
CCN(CC)c1ncc(C)c(=O)[nH]1	-1.6	i
O=C(NC1=NCCS1)c1ccc2c(c1)C(=O)N(Cc1ccco1)C2=O	-2.0	i
CCOC(=O)c1c(C)n(C)c2ccc(OCC(O)CN(CC)CC)cc12 (stereo not given)	0.0	.
O=C(NCCCN1CCOCC1)c1cc2cc(Br)ccc2oc1=O	-0.8	.
CC(=O)Nc1ccc(S(=O)(=O)NCc2ccc(C(=O)NCc3ccc4c(c3)OCO4)cc2)cc1	0.1	.
O=C(CSc1nccn1-c1ccc(F)cc1)NCc1ccc2c(c1)OCO2	-1.8	.
COc1ccc(C2CC(=O)N3CN(c4ccccc4F)CSC3=C2C#N)cc1OC (stereo not given)	0.4	.
CCOC(=O)c1nnn(-c2nonc2N)c1-c1ccc(OCC)cc1	2.8	.
COc1cccc(C2N(c3ccc(Cl)c(Cl)c3)C(=O)C3CCCN32)c1OC (stereo not given)	2.0	.
CCOC(=O)CC(=O)CSc1ccc2nnc(-c3ccc(C)cc3)n2n1	0.2	.
Nc1nonc1C(=O)NCCc1ccccc1	-0.3	.
O=C(O)C1CCC(=O)N1C1c2ccccc2Oc2ccccc21 (stereo not given)	-2.1	.
CSc1ccc(S(=O)(=O)Nc2cccc(F)c2)cc1	-1.1	i
COc1ccc(C)cc1NC(=O)CNC(=O)Cn1ccc2ccccc2c1=O	0.9	i
CN(Cc1nc(-c2ccncc2)no1)S(=O)(=O)c1ccccc1	0.0	i
Cc1ccc(C)c(C(=O)N(Cc2nc(-c3ccc(Cl)cc3)no2)C(C)C)c1	2.6	.
CC1(C)Cc2c(c(N3CCOCC3)nc3sc(C#N)c(N)c23)CS1	-0.6	i
Cc1c(C#N)c2ccccc2n1CC(=O)NCCc1c[nH]c2ccccc12	0.2	.
N#Cc1nc(COc2ccc(Br)cc2)oc1N1CCCCCC1	-1.5	.
CCc1[nH]nc2c1C1(CCN(C(=O)OCc3ccccc3)CC1)C(C#N)=C(N)O2	-1.2	i
CC(C)(C)C(=O)Cn1c(=O)n(CC2CCCO2)c(=O)c2ccccc21 (stereo not given)	0.0	.
CCC1CCCCN1CCCn1c(=S)[nH]c2ccccc2c1=O (stereo not given)	-0.6	.
CCOc1ccc(C(=O)Nc2c3c(nn2C(C)(C)C)CSC3)cc1OCC	-1.5	.
COc1ccc(S(=O)(=O)Nc2ccc(S(=O)(=O)N3CCCCC3)cc2)cc1OC	0.0	i
CC(=O)Nc1ccc(NC(=O)c2cc(C)nn2-c2ccccc2)cc1	-1.0	i
Cc1ccc(-c2cc3nc4c(c(=O)n3[nH]2)CCCC4)cc1	-2.5	i
CCOC(=O)c1c(C)n(C)c2ccc(OCC(O)CNC(CC)CO)cc12 (stereo not given)	-0.1	.
